Screening results deposited in PubChem BioAssay by ICCB-Longwood Screening Facility, Harvard Medical School.
AID504770: growth inhibitors of E. coli YBA685 in a screen for V. cholerae RctB (chromosome II replication) inhibitors | E. coli YBA685 rctB-dependent plasmid, OD600 growth, 3 h; active compounds read low | z-score (no concentration beside the values) | hit rate 0.27% among 130,000 | AID 504770;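 active = z-score under -2 on both plates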;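 note: wells of about 30 µL received 100 nL stock; score is relative to mean and SD of the test wells; the first replicate is given; strong numbers were not always called active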
CapD inh: inhibitors of Bacillus anthracis CapD enzyme | z-score (no concentration beside the values) | hit rate 0.23% among 140,000 | purified CapD enzyme, fluorescence intensity read-out; active compounds read low; some hits fall short of the stated cut;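 active = z-score under -4 in either of two replicates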;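 note: stock transfer was 100 nL into about 40 µL; score is relative to mean and spread of the plate; one replicate is shown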
Starred values were filed as active, the others as inactive; / = not tested or not shown. These rows are one share of the data, so the mix of outcomes need not match the whole.

Start of the listing, in advance, 7 compounds:
SMILES	AID504770	CapD inh
O=C(NCCCN1CCCC1)C(Cc1ccccc1)N1Cc2ccccc2C1=O (configuration not stated)	1	0.14
O=C(NC1=NCCS1)c1sc2cc(F)ccc2c1Cl	-0.1	0.155
O=C(NCCN1CCOCC1)c1cccc2ccccc12	-1.45	1.21
CC(=O)Nc1c2c(nn1-c1ccccc1)CS(=O)(=O)C2	-0.35	/
Cc1nc2ccc(NC(=O)/C=C/C(=O)O)cc2s1	0.35	/
Cn1c(NC(=O)/C=C/c2ccccc2)cc(=O)n(C)c1=O	-0.4	-0.805
CCCCN(CC)C(=O)c1ccccc1Oc1ccccc1	-0.75	0.365

This part in full (from the top)
SMILES	AID504770	CapD inh
O=C(NCCCN1CCCC1)C(Cc1ccccc1)N1Cc2ccccc2C1=O (configuration not stated)	1	0.14
O=C(NC1=NCCS1)c1sc2cc(F)ccc2c1Cl	-0.1	0.155
O=C(NCCN1CCOCC1)c1cccc2ccccc12	-1.45	1.21
CC(=O)Nc1c2c(nn1-c1ccccc1)CS(=O)(=O)C2	-0.35	/
Cc1nc2ccc(NC(=O)/C=C/C(=O)O)cc2s1	0.35	/
Cn1c(NC(=O)/C=C/c2ccccc2)cc(=O)n(C)c1=O	-0.4	-0.805
CCCCN(CC)C(=O)c1ccccc1Oc1ccccc1	-0.75	0.365
O=C(CN1C(=O)/C(=C\c2cccc(Br)c2)SC1=S)Nc1ccccc1C(=O)O	/	-0.25
COc1ccc(CNC(=O)c2cccnc2SC)cc1OC	-0.85	/
CCn1c(-c2cc(OC)c(OC)c(OC)c2)nc2ccccc21	1.65	/
CCOc1ccc(NC(=O)CCNc2ccccc2OC)cc1	0.5	/
COc1ccc(N2C(=O)/C(=C/c3cc(OC)c(OC)c(OC)c3)N=C2c2ccc(Cl)cc2)cc1OC	/	-0.43
COc1ccc(-c2ccc(/C=c3\sc4nc5ccccc5n4c3=O)o2)c([N+](=O)[O-])c1	/	0.52
CCOC(=O)c1c(NC(=O)Cc2ccc(Cl)cc2)sc(C(=O)Nc2cc(C(F)(F)F)ccc2Cl)c1C	/	-0.445
NS(=O)(=O)c1ccc(Cc2ncc(C(F)(F)F)cc2Cl)s1	/	-0.57
C=CCSc1nc(C)cc(C)c1C(=O)Nc1ccccc1	-0.55	0.005
COc1cc2c(cc1OC)C(c1cccs1)N(C(=O)/C=C/c1ccco1)CC2 (configuration not stated)	-0.05	/
CN(C)C(=O)c1csc(C2COc3ccccc3O2)n1 (configuration not stated)	-2	0.035
Cc1ccc(CNC(=O)C2=NN(c3ccccc3)C(=O)CC2)cc1	-0.3	/
CN(Cc1ccccc1)C(=O)c1cc(-c2cccc(O)c2)on1	0.2	-0.295
CC1(C)C2CCC1(CS(=O)(=O)NC(CC(=O)O)c1cccc(Br)c1)C(=O)C2 (configuration not stated)	0.2	/
N#CC1=C(S)NC(=O)C(C#N)C12CCCCC2 (configuration not stated)	-0.35	/
COC(=O)C1Cc2cc(OC)c(OC)cc2C(Cc2ccc(OC)c(OC)c2)=N1 (configuration not stated)	-0.75	0.58
O=C(Cn1cc2c(n1)CCCCC2)NCc1ccc(F)cc1	0.4	-0.07
CC(C)c1ccc(OCC(=O)Nc2ccc(N3CCN(C)CC3)cc2)cc1	-0.45	0.64

Whole records as entered above.
NS(=O)(=O)c1ccc(Cc2ncc(C(F)(F)F)cc2Cl)s1 across the screens: AID504770 = /; CapD inh = -0.57
Cc1nc2ccc(NC(=O)/C=C/C(=O)O)cc2s1 across the screens: AID504770 = 0.35; CapD inh = /

(listing goes on)
SMILES	AID504770	CapD inh
CCc1ccc2c(c1)SC1=NS(=O)(=O)CCN12	-0.05	/
COc1ccc(CN2CCn3ncc(C(=O)Nc4ccccc4)c3C2=O)cc1	/	0.09
COc1ccc(S(=O)(=O)n2c(SCC(=O)NCc3cccs3)nc3ccccc32)cc1	/	-0.26
O=S(=O)(Nc1ccc(F)cc1)c1cc(Cl)c(Cl)cc1Cl	/	-0.115
O=S(=O)(c1cc(Cl)sc1Cl)N1CCCC1	/	0.05
COc1ccc(C2C3=C(CCCC3=O)Nc3ncnn32)c(OC)c1OC (configuration not stated)	/	-1.03
COc1ccccc1CNS(=O)(=O)c1ccc(F)c(C(=O)Nc2c(F)cc(F)cc2Br)c1	/	-0.395
CCOC(=O)c1sc2nc(N3CCOCC3)c3c(c2c1N)CC(C)(C)N(C)C3	/	10
O=C(CC12CC3CC(CC(C3)C1)C2)NCC(=O)N1CCCC1	-1.2	-0.105
O=C(NC1CC1)c1sc2cc(F)ccc2c1Cl	-0.15	-0.755
C[n+]1ccccc1C(O)Cc1ccncc1 (configuration not stated)	-0.1	/
CCC(=O)Nc1nonc1-c1nc2ccccc2n1C	-0.95	12.2
O=C(COc1ccccc1)NN1C(=O)CSC1=S	1.7	/
COc1cc(OC)nc(-c2ccc(NC(=O)c3cccc(C(F)(F)F)c3)cc2)n1	/	0.295
Cc1ccc2oc(=O)c3cc(C(=O)N(CC(C)C)CC(C)C)sc3c2c1	-0.1	0.42
O=C(NCCS(=O)(=O)c1ccc(C(F)(F)F)cn1)c1ccc(Cl)cc1	-0.7	-1.21
Cc1occc1-c1nnc(SCCCC(=O)c2ccc(Br)cc2)n1C	2.05	/
CCOC(=O)/C(C#N)=N/Nc1cc(-c2ccccc2)[nH]n1	/	-1.34
CCn1c(C(=O)O)c(CC(=O)Nc2cc(OC)ccc2OC)c2ccccc21	-0.15	0.535
CCCC1=NN2CCS(=O)(=O)N=C2S1	-0.55	/
CCOC(=O)C1=C(C)NC(C(=O)OCC)CS1 (configuration not stated)	/	-0.67
Oc1cccc2ccc[n+](CC(O)Cn3c4ccccc4c4ccccc43)c12 (configuration not stated)	-0.35	0.15
C=CCOc1cc(NC(C)=O)c(C(C)=O)cc1C(C)=O	/	0.74
COc1cc2nc(C)n(C(=S)S)c2cc1OC	0.6	/
CC1Cc2ccccc2N1C(=O)Cn1cnc2ccccc2c1=O (configuration not stated)	-4.45	/

Next part.
SMILES	AID504770	CapD inh
CN(Cc1ccc(Cl)c(Cl)c1)Cn1nnc2ccccc21	0.4	/
O=C(O)CC1(CC(=O)NCC2COc3ccccc3O2)CCCCC1 (configuration not stated)	0	-0.17
CN(C(=O)c1ccco1)c1ccccc1	2.1	-0.295
CC1CCCC(NC(=O)COC(=O)c2cncc(Br)c2)C1C (configuration not stated)	1.5	/
Cn1c(=O)c2sccc2n2c(CCC(=O)N3CCN(c4ncccn4)CC3)nnc12	-1.15	0.3
Clc1ccc(CN2CCCCC2)cn1	-0.35	0.02
O=C(NC1=NC2CCCCC2N1)c1ccccc1 (configuration not stated)	1.25	-0.19
NC(=S)c1ccc(-c2csnn2)cc1	/	-0.465
CSc1ncc(Cl)c(C(=O)C(C#N)c2nc3ccccc3c(=O)[nH]2)n1 (configuration not stated)	-0.05	/
CS(=O)(=O)N(C(=O)NC(=O)NC12CC3CC(CC(C3)C1)C2)C1CCCCC1	0.45	/
COc1ccccc1S(=O)(=O)Cc1ccc(C(=O)NCc2ccccc2)o1	0.55	0.475
Cc1cc(-c2csc(NC(=O)/C=C/c3ccco3)n2)c(C)n1CC1CCCO1 (configuration not stated)	-0.8	/
O=C(c1cccc(Oc2ccccc2)c1)N1CCN(c2ccccn2)CC1	0.7	0.58
CNc1nc(OCC(F)(F)F)nc(N2CCCC[C@H]2c2cccnc2)n1	/	-0.075
O=C(c1cccn(Cc2ccc(Cl)c(Cl)c2)c1=O)N1CCOCC1	/	0.005
O=C(Cn1cnc2ccccc2c1=O)Nc1cc(C(F)(F)F)ccc1N1CCOCC1	0.35	/
O=[N+]([O-])c1ccccc1-c1cnco1	/	0.56
CCN(CC)C/C(C)=N/Nc1ccccc1	-0.85	1.16
CC(=O)n1c2ccccc2c2nc(C)sc21	-0.95	-0.855
CCOC(=O)c1ccc(NC(=O)Cn2cc3c(n2)CCCC3)cc1	-0.55	-0.04
Cc1cc(C)c(C#N)c(Sc2ccccn2)n1	-0.15	0.175
CC[n+]1c(C)sc2ccccc21	0.5	0.36
Cc1nc(-c2cccc(Cl)c2)n[nH]1	-0.45	1.53
O=C(Nc1cccc(Cl)c1)OC1CN2CCC1CC2 (configuration not stated)	2.1	-0.205
CC1=CC(C)C2(COC(=O)Nc3ccccc3)COC(C)C1C2C (configuration not stated)	-0.45	/

4 entries out of the list, arranged by SMILES length, highest first:
SMILES	AID504770	CapD inh
CSc1ncc(Cl)c(C(=O)C(C#N)c2nc3ccccc3c(=O)[nH]2)n1 (configuration not stated)	-0.05	/
CC1=CC(C)C2(COC(=O)Nc3ccccc3)COC(C)C1C2C (configuration not stated)	-0.45	/
O=[N+]([O-])c1ccccc1-c1cnco1	/	0.56
CN(C(=O)c1ccco1)c1ccccc1	2.1	-0.295

The listing continues:
SMILES	AID504770	CapD inh
CCOC(=O)C1CCCN(C(=O)c2ccc(Cl)cc2)C1 (configuration not stated)	-0.9	-0.205
COc1ccc(Nc2nc(N)nc(CC(=O)CSc3ccc(C)cc3)n2)cc1	1.65	-0.16
CCc1onc(C)c1C(=O)Nc1ccc(N2CCOCC2)cc1	0.8	/
O=C(c1ccc(Cl)c(Cl)c1)n1ccc(C2CC2)n1	2.05	-0.29
Cn1c(=O)c2c(nc(CN3CCc4ccccc4C3)n2CCCc2ccccc2)n(C)c1=O	1.55	-0.355
CCC1SC(CC)C(=O)N(CC(=O)NCc2ccccc2)C1=O (configuration not stated)	0.5	0.685
CCOc1ccccc1NC1=NC(C)(C)CS1	-0.35	-0.205
CCOc1ccc(C2(O)CN(c3cc(C)ccc3C)C3=[N+]2CCCS3)cc1 (configuration not stated)	/	-0.265
C/C(=N\O)C12CC3CC(CC(C3)C1)C2	/	0.635
CCn1c(O)c(C=Nc2cc(S(=O)(=O)CC)ccc2O)c(=O)n(CC)c1=S	1.25	/
COc1cc(OC)c(OC)cc1CO	1.05	/
CC(C)CN(CC(C)C)C(=O)CSc1nnc(C(C)N(C)C)n1Cc1ccccc1 (configuration not stated)	-0.7	/
CCOP(=O)(OCC)c1nc(-c2ccc(Cl)cc2Cl)oc1N(C)C	/	35.4
CCOc1cc(C(=O)NC(C)(C)CC)cc(OCC)c1OCC	1.35	-0.14
CC(C)(C)C(=O)N1CCC(c2nc(-c3cnccn3)no2)CC1	/	-0.345
COc1nc(F)c(F)c(Oc2ccc(C)cc2)c1F	-3.15	0.225
CC(C)(C)NC(=O)c1ccc(-n2nc(C(F)(F)F)c3c2-c2ccoc2CC3)cc1	-0.05	0.35
N#CC1=C(N)OC(NCc2ccco2)=C(NC(=O)c2ccccc2)C1c1ccccc1 (configuration not stated)	/	-0.29
CSC1=NC(=Nc2ccc(C)cc2)C2(CCC(C(C)(C)C)CC2)N1c1ccc(Cl)cc1 (configuration not stated)	/	0.085
O=c1c2cn[nH]c2[nH]c(=S)n1-c1ccc(F)c(Cl)c1	/	-0.095
COc1ccc(C2=NN(C(=O)COn3nnc4ccccc43)C(c3ccco3)C2)cc1 (configuration not stated)	-0.25	/
CCN(CC)C(=O)Cn1c(=O)n(CC(=O)NCc2ccc(C)cc2)c(=O)c2sccc21	-0.8	0.785
O=[N+]([O-])c1ccc(NCCNS(=O)(=O)c2cccc3nonc23)nc1	/	-1.51
O=C(O)c1ccc(CSc2ccc(Cl)cc2)cc1	-0.5	0.37
COC(=O)C1CCN(C(=O)COC(=O)CCc2nc3ccccc3c(=O)[nH]2)CC1	-0.45	/

Further records.
SMILES	AID504770	CapD inh
O=c1[nH][nH]c2nc(C(F)(F)F)cc(C(F)(F)F)c12	-0.8	-0.89
CCOC(=O)CCc1c(C)nn2cnnc2c1C	1.75	2.01
CCOc1ccccc1N(CC(=O)N1CCN(c2ccccc2OC)CC1)S(=O)(=O)c1ccccc1	/	-0.41
COc1ccc(/C=C2/N=C(N3CCOCC3)SC2=O)cc1OC	0.35	/
CC(C)c1cc(NC(=O)COC(=O)c2cc3c(s2)CCCCC3)on1	-1.4	/
CC(C)(C)c1ccc(C(=O)NCCNc2nccc(C(F)(F)F)n2)cc1	/	0.79
CCC(C(=O)NCc1cccc(OC)c1OC)n1sc2ccccc2c1=O (configuration not stated)	-1.15	67.7
COc1cc(OC)cc(C(=O)N2N=C(c3c(-c4ccccc4)c4cc(Br)ccc4[nH]c3=O)CC2c2ccco2)c1 (configuration not stated)	/	-0.1
CCOc1ccc(S(=O)(=O)NCc2cccnc2)c2ccccc12	0.15	4.37
O=S(=O)(NCc1ccco1)c1c(F)cccc1F	/	-0.75
N#Cc1c(NC(=O)c2ccccc2)oc(-c2ccccc2)c1-c1ccccc1	-0.1	/
O=C(Nc1nc(-c2ccc(Br)cc2)cs1)c1cc(=O)c2ccccc2o1	/	-0.42
CC(=O)Oc1ccccc1-c1nc2s/c(=C/c3ccc(C)cc3)c(=O)n2n1	/	-0.5
O=C(NC1CCCC1OCc1ccccc1)OCCCc1ccccc1 (configuration not stated)	/	-0.57
COC(=O)c1ccc(COC(=O)c2ccccn2)cc1	-0.5	/
CCOC(=O)C1CCN(C(=O)c2ccc(N3CC4CC(C3)c3cccc(=O)n3C4)c(NC(=O)c3cccs3)c2)CC1 (configuration not stated)	/	0.265
Cc1ccc(/C=C2/SC(N3CCCC3)=NC2=O)cc1	-0.6	-0.32
COCCCNC1=C(C#N)C(=O)NC(C2CC=CCC2)S1 (configuration not stated)	/	0.135
COc1cc(/C=N/N=C2\NC(=O)C(Cc3ccc(Cl)cc3)S2)ccc1O (configuration not stated)	1.05	0.685
CC(C)(C)NC(=O)CSc1nc(N)c(C#N)cc1C#N	-0.15	37.1
Cc1cc(C)nc(NC(N)=NCc2ccccc2Cl)n1	-0.95	0.155
N#Cc1cc(C(=O)Cc2ccccc2)cn1-c1ncc(C(F)(F)F)cc1Cl	/	-0.145
CCOC(=O)/C=C1\SCC(=O)N1CCOC(=O)c1c(-c2ccccc2)noc1C	1.3	/
CCOC(=O)N/N=C/c1ccc(OC)c(O)c1	/	0.32
O=S(=O)(NCc1cccs1)c1ccccc1F	/	-0.16
CSc1nccc(-c2ccc(Cl)cc2)n1	-0.7	0.35
